Compound activity deposited in PubChem by National Center for Advancing Translational Sciences (NCATS).
PINK1 modulator: modulators of PINK1 expression. PINK1 immunofluorescence, high-content cytometry, 24 h. Potency, µM (highest dose often 76.6 µM), for the others: at the top dose activation (PINK1 increase), hits mostly activators. hit rate 0.2% among 410,000. AID 624263; active = well fitted activation curve with a large enough effect; inconclusive = small, poorly fitted or top-dose-only effect; inactive = flat fitted curve, though single readings scatter; cell line not stated here;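 also: % of control where 0% means no effect; nearly all actives have a fitted effect of over 65% in size; a mitochondrial uncoupler was the plate control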
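Stable cell line treated 24 h with compounds at 5 concentrations (CCCP controls), then fixed and immunostained for PINK1 plus nuclear and cell stains; PINK1 immunofluorescence quantified by laser-scanning microplate cytometry.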
* marks the source's active call; other numbers are inactive results; ? = inconclusive. Potency is read from the fitted curve at half-maximal effect.

PINK1 modulator	Structure
-0.4%	Cc1cc(N2CCCCC2)nc2ccc(NC(=O)/C=C/c3ccccc3OC(C)C)cc12
0.3%	COc1ccc(-c2noc(CSc3nc(C)cc(=O)[nH]3)n2)cc1OC
2.7%	COC(=O)c1cc2oc3ccccc3c2n1Cc1cccc(C)c1
9.5%	Cc1cc(Nc2cccc(C(F)(F)F)c2)ncn1
10%	O=C(NCCn1cc(SCc2ccc(Br)cc2)c2ccccc21)c1cccs1
-2.6%	CCOc1ccccc1C(=O)N1CC(=O)Nc2ccc(Cl)cc2C1c1ccccc1 (stereo unspecified)
5.5%	COc1ccc(NC(=O)CSc2nc(-c3ccco3)cc(C(F)(F)F)n2)c(OC)c1
-1.5%	COc1ccc(OC)c(NC(=O)Nc2c(C)n(C)n(-c3ccccc3)c2=O)c1
2.8%	CCOCCCNC(=O)c1c[nH]c2ccc(S(=O)(=O)Nc3cccc(Cl)c3C)cc2c1=O
1.1%	COc1ccc(Cl)cc1NC(=O)c1cnc2sc(N3CCOCC3)nn2c1=O
1.1%	Cc1coc2cc3oc(=O)c(CCC(=O)NCc4ccc(Cl)cc4)c(C)c3cc12
-1.0%	O=C(CCS(=O)(=O)c1ccc(Br)s1)Nc1cc(C(F)(F)F)cc(C(F)(F)F)c1
5.0%	CCOc1cc(C(=O)NCCc2sc(-c3ccc(F)cc3)nc2C)cc(OCC)c1OCC
0.1%	CC(=O)N1c2ccc(S(=O)(=O)N3CCCCCC3)cc2CC1C(=O)NC(C)C (stereo unspecified)
-0.2%	CCCN(Cc1cccs1)C(=O)Nc1cc(OC)ccc1OC
1.7%	O=[N+]([O-])c1cc(-c2nc(-c3ccco3)no2)ccc1NCc1ccccc1
-0.7%	Cc1cccc(N(C)C(=O)Cn2c(=O)oc3cc(S(=O)(=O)N4CCCCC4)ccc32)c1
0.8%	COc1ccc(-c2noc(C3CC(=O)N(c4ccc5c(c4)OCCO5)C3)n2)c(OC)c1 (stereo unspecified)
8.1%	CCC1=Nc2cc(C(=O)NC3CCC(C)CC3)ccc2Sc2ccc(C)cc21 (stereo unspecified)
1.5%	Cn1c(Oc2ccccc2)nc2c1c(=O)n(Cc1ccc(Cl)cc1Cl)c(=O)n2C
0.1%	COc1cc(C2NC(=O)c3c(sc4c3CCN(C)C4)N2)ccc1OC(=O)c1ccccc1 (stereo unspecified)
-0.8%	O=C(CN1C(=O)c2ccccc2C1=O)NCC1Cc2cccc(-c3ncccn3)c2O1 (stereo unspecified)
1.3%	CCCN1CN=C(NS(=O)(=O)c2ccc(NC(C)=O)cc2)NC1
3.8%	COc1cc2oc(=O)c(CC(=O)NCCc3ccccc3F)c(C)c2cc1OC
-2.9%	Cc1ccc(C)c(Nc2nn3c(=O)c4ccc(C(=O)NCc5ccccc5)cc4nc3s2)c1
2.8%	CC1=C(C(=O)OC2CCCCCC2)C(c2cccc(Cl)c2)CC(=O)N1 (stereo unspecified)
0.2%	CCN1CCCC1CNCc1cc2ccc(SC)cc2nc1-c1cc(OC)ccc1OC (stereo unspecified)
0.2%	O=C(NCc1ccco1)c1ccc2c(c1)N(Cc1ccccc1)C(=O)c1ccccc1S2(=O)=O
1.6%	CCC(Sc1nnc2c(n1)[nH]c1ccccc12)C(=O)Nc1ccccc1OC (stereo unspecified)
1.1%	COc1ccc(N2CCN(C(=O)CSc3n[nH]c(-c4ccccc4Cl)n3)CC2)cc1
0.0%	C(=Nc1ccc(/C=C/c2ccnc3ccccc23)cc1)c1cccs1
8.5%	Cc1ccc(NC(=O)Nc2nc3c(s2)CCCCCC3)cc1C
6.0%	O=C(Cn1c(-c2cccs2)cc2cc(Cl)ccc21)NCc1ccccc1
-1.1%	CC(=O)N1c2ccccc2CC1C(=O)N1CCN(c2ccccc2)CC1 (stereo unspecified)
0.8%	COc1ccc(-c2nc(CSCC(=O)N3CCN(c4cccc(C)c4C)CC3)c(C)o2)cc1OC
2.5%	Cc1cccc(CNC(=O)c2ccc(-c3nc(CS(=O)(=O)c4ccccc4)c(C)o3)cc2)c1
-2.7%	O=C(c1cccs1)N(Cc1cccnc1)c1nc2ccc(F)cc2s1
0.4%	COc1ccc(OC)c(-c2noc(N3CCN(c4cccc(C)c4C)CC3)n2)c1
2.1%	COc1ccc(OCC(=O)Nc2nnc(S(=O)(=O)N3CCc4ccccc43)s2)cc1
6.1%	O=C(C[n+]1cc(Br)cc(Br)c1)c1ccc(I)cc1

Gathered by group, the entries above containing a thiophene ring, fused or not.
PINK1 modulator	Structure
10%	O=C(NCCn1cc(SCc2ccc(Br)cc2)c2ccccc21)c1cccs1
-1.0%	O=C(CCS(=O)(=O)c1ccc(Br)s1)Nc1cc(C(F)(F)F)cc(C(F)(F)F)c1
-0.2%	CCCN(Cc1cccs1)C(=O)Nc1cc(OC)ccc1OC
0.1%	COc1cc(C2NC(=O)c3c(sc4c3CCN(C)C4)N2)ccc1OC(=O)c1ccccc1 (stereo unspecified)
0.0%	C(=Nc1ccc(/C=C/c2ccnc3ccccc23)cc1)c1cccs1
6.0%	O=C(Cn1c(-c2cccs2)cc2cc(Cl)ccc21)NCc1ccccc1
-2.7%	O=C(c1cccs1)N(Cc1cccnc1)c1nc2ccc(F)cc2s1

The listing continues.
PINK1 modulator	Structure
-0.6%	CC(=O)c1cccc(NC(=O)c2noc3c2CSc2ccccc2-3)c1
2.2%	Cc1nc2c(C(=O)NC(C)c3ccccc3)cnn2c(C)c1Cc1ccccc1 (stereo unspecified)
4.3%	COc1ccc(CCNC(=O)CCCCn2c(=O)c3ccccc3n(Cc3ccccc3C)c2=O)cc1OC
2.1%	COc1cccc(N2CCN(C(=O)c3cc4c(=O)n(Cc5ccco5)ccc4nc3C)CC2)c1
-2.5%	CCOc1ccc(NC(=O)c2cc3sc(Cl)cc3n2CC)cc1
3.0%	CCCC(=O)Nc1ccc2nc(SCc3ccc(C)cc3)sc2c1
1.9%	COc1ccc(CNC(=O)c2nn(-c3ccccc3C)nc2CO)cc1
1.6%	COc1ccc(-c2nc3cc(NC(=O)COc4ccccc4C)ccc3o2)cc1
2.9%	Cc1cccc(OCCSc2nc3ccc(NC(=O)COc4ccccc4F)cc3s2)c1
3.1%	Cc1cccc(NC(=O)Cn2nnc(C(=O)NCc3cccs3)c2N)c1
3.9%	COc1ccc(NC(=O)/C(C#N)=C/c2ccc(C)o2)cc1
-0.8%	COc1ccc(CCCc2nnc(SCC(=O)Nc3cccc(F)c3C)o2)cc1
-0.2%	O=C(NC1CC(=O)N(c2ccc(F)cc2)C1)c1cc2ccccc2o1 (stereo unspecified)
17%	CCCn1cc(S(=O)(=O)c2cc(C)ccc2C)c(=O)c2cc(F)c(N3CCN(CC)CC3)cc21
-0.3%	O=C(CNC(=O)C1CCCCC1)OCC(=O)c1ccc([N+](=O)[O-])cc1
0.5%	CCN(CC)c1ccc(NC(=O)CN2C(=O)c3cccnc3Oc3ccccc32)c(C)c1
-0.3%	CSc1ccc(CCNC(=O)c2ccc(-n3c(C)cc4c3CCC(C)C4)cc2)cc1 (stereo unspecified)
2.9%	CC(=O)Nc1ccc(NC(=O)c2ccc3c(c2)N(Cc2cccc(Cl)c2)C(=O)c2ccccc2S3(=O)=O)cc1
2.8%	O=C(NCCc1ccccc1)c1ccc(Cn2c(SCc3ccc(F)cc3)nc3cccnc32)cc1
1.0%	COc1ccc(Cl)cc1NC(=O)c1sc2nc3n(c(=O)c2c1C)CCC3
-0.8%	O=C(Nc1cccc(C(F)(F)F)c1)c1cnn(-c2cccc(F)c2)c1C1CCNCC1
2.9%	CSc1ccc(-c2nc3cc(C)ccn3c2Nc2ccc(C)cc2)cc1
-0.9%	COC(=O)c1scc(-c2ccc(C)cc2)c1S(=O)(=O)Nc1cc(C)c(Cl)cc1OC
0.3%	CCOC(=O)c1c(NC(=O)c2ccc(C)c(C)c2)sc2c1CCCCC2
1.8%	Cc1ccc(NS(=O)(=O)c2ccc3c(c2)CCCN3C(=O)C2CCC2)cc1Cl
-0.1%	CCOC(=O)N1CCc2c(sc3c2c(=O)n(-c2ccccc2C(F)(F)F)c(=O)n3Cc2ccccc2C)C1
2.1%	COC(=O)c1c(SC)nc2ccccc2c1OCc1ccccc1Cl
-0.1%	CCOc1ccc(NC(=O)C2CCN(S(=O)(=O)c3c(C)noc3/C=C/c3c(C)cc(C)cc3C)CC2)cc1
-0.2%	COc1ccccc1NC(=O)Cn1c(SCC(=O)NCc2ccccc2)nc2ccccc21
5.7%	COc1ccc(-c2cc(C(=O)Nc3c(C)nn(Cc4ccc(F)cc4)c3C)no2)cc1OC
-0.1%	Cc1ccc(Cc2nc3ccccc3nc2SCC(=O)N2CCN(c3ccccc3F)CC2)cc1
?	COc1ccc(-c2cc(C(F)(F)F)nc(NCc3ccc(Cl)cc3)n2)cc1
0.4%	c1ccc(Nc2nc(N3CCCC3)nc(N3CCOCC3)n2)cc1
?	Cc1ccc(-n2c(=O)c3ccc(C(=O)NCc4ccccc4Cl)cc3n(Cc3ccccc3F)c2=O)cc1
1.4%	CCS(=O)(=O)c1nc(S(=O)(=O)c2ccc(Cl)cc2)c(NCc2ccc(Cl)cc2)s1
0.9%	Fc1ccc(-c2noc3ncnc(N4CCCCC4)c23)cc1
0.2%	CCc1cccc(NC(=O)c2coc(=O)c3ccccc23)c1
-3.6%	COc1cc([N+](=O)[O-])ccc1NC(=O)N1CCN(c2cc(-c3noc(C)n3)ccc2C)CC1
6.5%	CCc1ccc(C2=C(C)C(N3CCC(C(=O)NCc4ccccc4)CC3)=NS2(=O)=O)cc1
-3.0%	Cc1ccc(C)c(N2CCN(C(=O)c3cc(S(=O)(=O)N4CCCCC4)cn3C)CC2)c1
-0.5%	Cc1ccc(-n2cc(C(=O)Oc3cccc(C)c3)c3ccccc3c2=O)cc1
1.7%	Cc1ccc(CNC(=O)c2cccn2-c2nnc(N3CCCCC3)s2)cc1
-0.4%	Cc1ccc(C)c(N2CCN(Cc3nnc(-c4ccccc4)o3)CC2)c1
-0.1%	O=C(Cc1ccc(Cl)cc1)NO
-0.5%	COc1ccc(Nc2nc3ccc(Cl)cc3n3nnnc23)cc1OC
0.9%	CCC(CC)C(=O)Nc1cccc(-c2nc3ccccc3s2)c1
0.2%	Cc1ccc2oc(C(=O)Nc3sc4c(c3C(=O)NCc3ccccc3)CCCC4)cc(=O)c2c1
-0.5%	Cc1cccc(Cn2nc(C)n3c(cc4cc(C)ccc43)c2=O)c1
-0.5%	CCc1ccc(S(=O)(=O)c2nnn3c2nc(N(CC)Cc2ccccc2)c2cc(Cl)ccc23)cc1
0.7%	Cc1cccc(-c2noc(-c3ccc(NCC4CCCO4)c([N+](=O)[O-])c3)n2)c1 (stereo unspecified)
5.0%	CCOc1ccccc1CC1C(=O)Nc2ccc(Br)cc21 (stereo unspecified)
-0.5%	CC(=O)c1cccc(NC(=O)CN2C(=O)CCc3cc(S(=O)(=O)N4CCCCC4)ccc32)c1
0.4%	COC(=O)c1ccc(NC(=O)CSc2ncc3c(n2)-c2cc(Cl)ccc2N(Cc2ccccc2)S3(=O)=O)cc1
2.7%	CCc1nnc(NC(=O)CSc2nccn2Cc2ccc(Cl)cc2)s1
-0.1%	CCCS(=O)(=O)c1ncc(Cl)c(C(=O)Nc2c(C(=O)Nc3ccccc3)oc3ccccc23)n1
0.0%	COc1cccc(NC(=O)CC2NCCNC2=O)c1 (stereo unspecified)

Later entries
PINK1 modulator	Structure
0.2%	COc1cc(OC)cc(C(=O)Nc2ccc(S(=O)(=O)N3CCCCC3c3cccnc3)cc2)c1 (stereo unspecified)
0.4%	Cc1ccccc1-n1nc(CO)c(C(=O)NCC(c2ccccc2)c2ccccc2)n1
0.5%	CCN(CC)c1ccc(C(=O)Nc2ccc3nc(N(CC)CC)cc(C)c3c2)cc1
0.6%	COc1cc(CN(CC2CCCO2)C(=O)c2ccccc2F)cc(OC)c1OC (stereo unspecified)
1.7%	COc1cc(NC(=O)N2c3ccccc3Sc3ccccc32)cc(OC)c1
-2.8%	CCCOc1ccc(C(=O)NCC2OCCc3ccccc32)cc1 (stereo unspecified)
0.9%	CCCCc1nn2c(=O)cc(COC(=O)c3cccs3)nc2s1
1.4%	COCCN(C)C(=O)c1cnn(-c2ncc3c(n2)-c2ccccc2CC3)c1C

Overlap with the part before: five compounds; new compounds follow.
PINK1 modulator	Structure
0.6%	COc1cc(CN(CC2CCCO2)C(=O)c2ccccc2F)cc(OC)c1OC (stereo unspecified)
1.7%	COc1cc(NC(=O)N2c3ccccc3Sc3ccccc32)cc(OC)c1
-2.8%	CCCOc1ccc(C(=O)NCC2OCCc3ccccc32)cc1 (stereo unspecified)
0.9%	CCCCc1nn2c(=O)cc(COC(=O)c3cccs3)nc2s1
1.4%	COCCN(C)C(=O)c1cnn(-c2ncc3c(n2)-c2ccccc2CC3)c1C
-0.2%	O=C(CCCn1c(=O)c2ccccc2n(CC(=O)Nc2cccc(C(F)(F)F)c2)c1=O)NCc1ccc2c(c1)OCO2
0.1%	Nc1[nH]c(=O)nc2c1ncn2C1OC(CO)C(O)C1O (stereo unspecified)
-0.4%	C=Cc1ccc(CN2C(=O)N(c3ccc(C)c(C)c3)S(=O)(=O)c3ccccc32)cc1
4.1%	Cc1ccc(Cl)cc1NC(=O)c1cc2c(=O)n3cccc(C)c3nc2n1C
0.0%	CCOC(=O)c1c(C)oc2ccc(N(C(C)=O)S(=O)(=O)c3c(C)cc(C)cc3C)cc12
-0.6%	Cc1ccc(Cn2c(CNS(=O)(=O)c3ccc(F)c(Cl)c3)nc3cccnc32)cc1
-1.1%	COc1ccc(CNC(=O)c2ccc3[nH]c(C)c(C)c3c2)c(OC)c1
1.8%	COc1ccc(Cl)cc1NC(=O)C(C)n1c(=O)cc(C(F)(F)F)c2c(C)nn(C)c21 (stereo unspecified)

Some of the compounds tested; the hit share may differ from the screen's.
